NPYLR7 agonist – agonists of mosquito NPYLR7 receptor, primary screen, cell-based, Aedes aegypti, calcium fluorescence, mosquito biting behavior; HEK293T NPYLR7/Galpha15, GCaMP6s calcium fluorescence; activation, % at 10 µM; actives 0.15% (n = 270,000); in the data active = activation above about 40%;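 note: 0% = vehicle and 100% = reference agonist at the receptor; some compounds past the cut are filed as inactive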
NPYLR7 agonist max-min – recorded beside NPYLR7 agonist, whose call it bears; activation, %; measured here: Max-Min RFU normalised activation; some inactives read as strong as hits;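 span of the calcium signal over five minutes; 0% = vehicle and 100% = native peptide agonist; compound fluorescence can raise it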
Starred values were filed as active, the others as inactive; & = joins results of further samples.

Sample of the layout (5 entries):
SMILES	NPYLR7 agonist	NPYLR7 agonist max-min
CC(CS(C)(=O)=O)N(C)C(=O)c1cc2cc(F)ccc2s1 (stereo not drawn)	-3.4	-3.6
O=C(Nc1ccccc1F)N1CCCC(Cn2cc(C3CC3)nn2)C1 (stereo not drawn)	1.1	-3.2
COc1ccc2c(COc3ccc(C(C)=O)cc3)cc(=O)oc2c1	2.2	10.1
O=c1[nH]c(=O)n(Cc2csc(-c3ccccn3)n2)cc1Cl	10.3&-16.1	-4.6&-21.9
N#Cc1cccc(CN2C(=O)C3(SCCN3C(=O)C3CC3)c3ccccc32)c1 (stereo not drawn)	12.9	16.3

All compounds of this part, repeating the preview:
SMILES	NPYLR7 agonist	NPYLR7 agonist max-min
CC(CS(C)(=O)=O)N(C)C(=O)c1cc2cc(F)ccc2s1 (stereo not drawn)	-3.4	-3.6
O=C(Nc1ccccc1F)N1CCCC(Cn2cc(C3CC3)nn2)C1 (stereo not drawn)	1.1	-3.2
COc1ccc2c(COc3ccc(C(C)=O)cc3)cc(=O)oc2c1	2.2	10.1
O=c1[nH]c(=O)n(Cc2csc(-c3ccccn3)n2)cc1Cl	10.3&-16.1	-4.6&-21.9
N#Cc1cccc(CN2C(=O)C3(SCCN3C(=O)C3CC3)c3ccccc32)c1 (stereo not drawn)	12.9	16.3
O=C(COC(=O)CNC(=O)c1cccc(Cl)c1)NC1CCCCC1	-1.0	-2.3
COCCN1C(=O)C2(SCCN2C(=O)Nc2cccc(OC)c2)c2ccccc21 (stereo not drawn)	1.3	6.0
CN(C)CCCn1c2c(c(SCC(=O)Nc3cccc(C(F)(F)F)c3)nc1=O)CCCC2	2.1	9.4
O=C(NCc1ccccc1)N1CCSC1c1ccccc1OCc1ccccc1 (stereo not drawn)	-7.5	0.0
CCN1C(=O)/C(=C2\SC(=S)N(NC(C)=O)C2=O)c2ccccc21	12.8	17.9
CCN(CC(=O)NCc1cccs1)c1ncnc2sc(C)c(C)c12	-0.6	-2.2
CCC(Nc1c2c(nc3ncnn13)CCC2)c1ccccc1 (stereo not drawn)	20.9	11.1
Cc1c(C(=O)NCc2ccc(C#N)cc2)sc(=O)n1Cc1ccccc1C#N	2.0	-1.1
CN1CCN(S(=O)(=O)c2ccc(N(C)CC3COc4ccccc4O3)nc2)CC1 (stereo not drawn)	14.3	5.0
CCN1CCN(C2=C(Cl)C(=O)N(Cc3ccccc3)C2=O)CC1	-3.3	-9.3
CCN(CC)C(=O)Oc1ccc2c(ccn2Cc2ccc(/C=C/c3ccccc3)cc2)c1-c1ccc(OC)cc1	22.0	5.9
COc1ccc(C2N(c3cccc(C(F)(F)F)c3)C(=O)C2(F)F)cc1 (stereo not drawn)	-1.8	-5.5
COC(=O)C(NC(=O)c1cc(OC)ccc1OC)c1ccc(Br)cc1 (stereo not drawn)	4.9	1.1
Cc1ccc(C(N)=S)c(C)c1	9.7	12.6
COc1ccc(N2C(=O)CN(C(=O)CSc3nc(C)cs3)CC2(C)C)cc1	3.5	-0.9
CCc1nc(C)c(C(=O)NC(c2ccccc2)c2nnc(N)s2)s1 (stereo not drawn)	-3.1	-8.8
CCOc1ccc(C(=O)N(C(=O)c2ccc(OCC)cc2)c2ncccc2C)cc1	-1.2	-3.1
O=C(COCc1ccccc1)Nc1nnc(SCCc2ccccc2)s1	-1.9	3.1
CCOC(=O)N1CCN(CC(=O)c2c(C)[nH]c3ccccc23)CC1	-8.7	-10.4
O=C(Nc1ccc(N2CCOCC2)nc1)N1CCCC1CN1CCCC1CO (stereo not drawn)	7.7	6.9
CC(C)(C)C(=O)NCCNC(=O)c1nonc1N	4.7&4.6	1.2&2.7
COC(=O)c1scc(-c2ccc(C)cc2)c1S(=O)(=O)N1CCCCC1	18.0	14.4
COc1ccc(OCC(=O)NNC(C)=O)cc1	-9.6	-21.3
Cc1ccc(C(C2Sc3ncnn3C2=O)N2CC(C)OC(C)C2)cc1 (stereo not drawn)	5.8	3.7
O=C(Nc1cccc(N2CCOC2=O)c1)C1CC(c2ccccc2)=NO1 (stereo not drawn)	-2.5	-1.9
Cn1ccnc1SCCn1ccnc1-c1ncc[nH]1	4.4	0.5
O=C(CSc1nnc(-c2ccccc2F)n1C1CC1)N1CCCC1	-0.6	0.0
O=C(N=Nc1c(O)[nH]c2ccccc12)c1cccc(S(=O)(=O)N2CCOCC2)c1	0.1	-4.2
CCCN(CCOC)C(=O)c1ccc(-c2cc(-c3ccc(Cl)cc3)[nH]n2)cc1	5.9	-1.6
CCCCn1c(=O)c2c(nc3n(-c4ccc(O)cc4)c(C)cn23)n(C)c1=O	-0.9	-0.9
CCn1cnc(NC(=O)NC[C@H]2C[C@H]3C=C[C@H]2C32CC2)n1	10.4	5.9
Cc1ccccc1C(=O)N[C@@H]1CCCCC1NC(=O)C1CCN(C(=O)C2CCC2)CC1 (stereo partly drawn)	2.2	7.3
COc1ccc(Nc2cc(C)nc3c(-c4ccc(C)cc4)c(C)nn23)cc1	4.8	6.7
CC(=O)Nc1sc2c(c1C(=O)OCc1nc(C(C)(C)C)no1)CCCC2	1.8	7.3
COCCN1CCc2nc(SCC(=O)Nc3ccc(C)c(Cl)c3)[nH]c(=O)c2C1	4.0	1.5
O=C1CC2(CCN(Cc3cc4n(n3)CCNC4)C2)Oc2ccccc21 (stereo not drawn)	8.6	5.1
CNC(=S)N1CCN(C(=S)c2ccc(N(C)C)cc2)CC1	-0.3	4.6
COc1ccc(CC(=O)N2CCC3(CC2)[C@H](C(=O)Nc2ccccc2)[C@@H](OC)C(=O)N3C)cc1	23.5	30.1
Cc1nn(C)cc1-c1ccnc(NCc2cn3cccc(C)c3n2)n1	-3.5	-4.4
CC(C#N)CNC(=O)c1ccc2c(c1)nc(C(F)(F)F)n2C(C)C (stereo not drawn)	-0.1	-5.5
COc1cc(N=C(C)c2c(C)[nH]n(-c3nc4ccccc4s3)c2=O)cc(OC)c1	-10.2	-23.6
Cc1nc(C2CC2)ncc1C(=O)N(C)Cc1ccc2nonc2c1	-2.9	-2.8
COC(=O)C(NC(=O)c1cc(S(=O)(=O)N2CCCCC2)ccc1Cl)C(C)C (stereo not drawn)	-5.0	-6.0
Cc1nc2ncccc2cc1C(=O)N1CCC(c2cc(C(C)C)n[nH]2)CC1	-2.9	-3.8
CC(Cc1ccc2c(c1)OCO2)c1nccn1CCc1cccnc1 (stereo not drawn)	1.1	-1.6
CCc1nc2c(OCC(=O)C(C)(C)C)cccn2c1N(C)C(=O)C(C)C	-0.3	6.3
C=CCOc1c(OC)ccc2c1CN(CCOC)C(=O)CCN2CC(O)CC(F)(F)F (stereo not drawn)	1.5	1.7
Cc1cccc(C2CC2C(=O)N2CCCC2C2CCCN2C)c1 (stereo not drawn)	-0.7	-0.4
COCCCN(CC(=O)N(Cc1cccn1Cc1ccc(Br)cc1)C1CCCCC1)C(=O)COCc1ccccc1	-9.8	-15.8
COc1cc2nc(CN3CCN(Cc4ccc(Cl)cc4)CC3)[nH]c(=O)c2cc1OC	0.4	0.5
COCCN(CCOC)C(=O)[C@H]1c2ccccc2C(=O)N(Cc2ccccc2)[C@H]1c1ccc(OC)cc1	-20.3	-24.5
O=C(c1ccsc1)N1CCN(Cc2ccn(-c3ccccc3)n2)CC1	5.5	2.8
Cc1ccccc1C(=O)NCCNc1cc(-n2ccnc2C)ncn1	-17.6	-20.2
N#CC(C1=NC2(CCCCC2)Cc2ccccc21)c1ccccc1 (stereo not drawn)	0.7	-1.3
COc1cccc([C@@H]2C[C@H](NC(C)=O)C[C@H](C3CCCCC3)O2)c1F	-3.8	-4.9

Four of the compounds above, with each value named:
structure: CC(Cc1ccc2c(c1)OCO2)c1nccn1CCc1cccnc1 (stereo not drawn)
  NPYLR7 agonist: 1.1	NPYLR7 agonist max-min: -1.6
structure: CCc1nc2c(OCC(=O)C(C)(C)C)cccn2c1N(C)C(=O)C(C)C
  NPYLR7 agonist: -0.3	NPYLR7 agonist max-min: 6.3
structure: C=CCOc1c(OC)ccc2c1CN(CCOC)C(=O)CCN2CC(O)CC(F)(F)F (stereo not drawn)
  NPYLR7 agonist: 1.5	NPYLR7 agonist max-min: 1.7
structure: Cc1cccc(C2CC2C(=O)N2CCCC2C2CCCN2C)c1 (stereo not drawn)
  NPYLR7 agonist: -0.7	NPYLR7 agonist max-min: -0.4

Additional entries follow.
SMILES	NPYLR7 agonist	NPYLR7 agonist max-min
O=C(c1ccccc1F)N1CCCN(c2nc(Cc3ccccc3)ns2)CC1	14.4	8.3
NS(=O)(=O)c1ccc(CCn2c3c(c(=S)[nH]c2=O)CCC3)cc1	-1.0	-1.4
CCOC(=O)N1CCN(C(=O)CSc2ncnc3c2nnn3Cc2ccccc2F)CC1	-1.5	19.5
Cc1cc(C)nc(SCc2cc(=O)c(OC(=O)/C=C/c3ccc4c(c3)OCO4)co2)n1	-9.9	-3.6
Cc1ccc(C(=O)NCCc2csc3nc(-c4cccs4)nn23)cc1[N+](=O)[O-]	-5.4	-5.7
CCc1nc2ccc(C(=O)NCCN3CCCC3)cn2c1N(C=O)Cc1ccc(OC)cc1	13.5	11.2
CC1(C)O[C@@H]2C[C@@](OCc3ccc(C#N)cc3)(C(=O)NCCN3CCOCC3)CC(OCc3ccc(F)cc3)[C@@H]2O1 (stereo partly drawn)	17.1	8.3
CCC(C)N(CC(=O)N1CCc2sccc2C1c1ccc(F)cc1)C(=O)c1ccc(Br)cc1 (stereo not drawn)	-3.4	8.2
Cc1cc(CNc2cccc(CS(=O)(=O)C(C)C)c2)no1	-1.0	-1.6
CN(Cc1ccccc1)C1(CNC(=O)c2cscn2)Cc2ccccc2C1	3.1	-2.9
Cc1nc(NC(=O)C2CCN(c3ccc(C#N)cn3)CC2)sc1C	2.7	1.6
FC(F)(F)c1cccc(N=c2oc3ccc(Br)cc3cc2-c2nc3ccccc3[nH]2)c1	-4.5	-9.4

4 compounds picked at random from those above:
SMILES	NPYLR7 agonist	NPYLR7 agonist max-min
O=C(N=Nc1c(O)[nH]c2ccccc12)c1cccc(S(=O)(=O)N2CCOCC2)c1	0.1	-4.2
CCc1nc2ccc(C(=O)NCCN3CCCC3)cn2c1N(C=O)Cc1ccc(OC)cc1	13.5	11.2
O=C(COC(=O)CNC(=O)c1cccc(Cl)c1)NC1CCCCC1	-1.0	-2.3
CNC(=S)N1CCN(C(=S)c2ccc(N(C)C)cc2)CC1	-0.3	4.6

Carrying on.
SMILES	NPYLR7 agonist	NPYLR7 agonist max-min
CN1CCN(CCNC(=O)c2cc3c(s2)CS(=O)(=O)C3)CC1	2.2	2.9
Cc1nnsc1C(=O)OCc1cc(-c2ccc3c(c2)OCCO3)on1	-8.2	-10.0
O=C(NCCc1ccccc1)c1ccc(OC2CCN(C(=O)C3CC=CCC3)CC2)cc1 (stereo not drawn)	9.1	5.3
COc1ccc(C(=O)N2CCN(c3nc(-c4ccccc4)nc(C)c3Cc3ccc([N+](=O)[O-])cc3)CC2)c(OC)c1	19.0	26.7
COC(=O)c1sc2nc(C)[nH]c(=S)c2c1C	3.7	0.9
C=CCCC(=O)N1CCc2ccccc2C1c1ccc(Cl)cc1 (stereo not drawn)	23.1	9.3
CCOC(=O)c1[nH]c(C)c(C(=O)C(C)N(CCOC)S(=O)(=O)c2ccc(Cl)cc2)c1C (stereo not drawn)	20.2	17.8
CC(=O)c1ccc(NC(=O)CSc2ccc(-c3sc(-c4cccnc4)nc3C)nn2)cc1	3.7	2.6
COc1ccc(/C=C2/C(=O)N(c3ccccc3)N=C2C)cc1OC	4.1	12.3
COc1ccc(F)c(CNCc2cccnc2N(C)C2CCCCC2)c1	15.0	10.6
CS(=O)(=O)N(CC(=O)NC1CC2CCC1C2)c1cccc(Cl)c1Cl (stereo not drawn)	6.0	14.8
Cc1ccc(Cc2nc(N3CCN(C(=O)c4ccc(Cl)cc4)CC3)c3c(C)nn(-c4ccccc4)c3n2)cc1	6.7	9.7
COc1cc(OC)c(C2CC(c3ccc4c(c3)OCO4)Nc3nnnn32)cc1OC (stereo not drawn)	4.5	3.5
CCOC(=O)C1(CCc2ccccc2)CCN(C(=O)c2cc3ncccn3n2)CC1	6.1	6.9
O=C(CSc1nc2ccccc2s1)Nc1nnc(C(F)(F)F)s1	-9.5	-17.1
CC(C)(C)c1ccc(-n2c(=O)[nH]c3c(C(N)=O)nc(-c4ccccc4F)nc32)cc1	17.0	7.8
O=C(c1cnn2c(-c3ccccc3)cc(-c3ccccc3)nc12)N1CCCCCC1	-2.6	-3.2
Cc1nc2c(=O)n(CC(=O)NCCc3ccccc3)nc(-c3ccco3)c2s1	0.4	-1.3
CCCSc1ncccc1C(=O)N1CCC(O)(c2ccc(Cl)cc2)CC1	-1.6	-6.1
CC(=O)N(C)C1CCN(Cc2nc(-c3cccc(C(F)(F)F)c3)oc2C)C1 (stereo not drawn)	12.0	1.7
COc1cc(CC2(CCC(=O)N3CCC(Oc4cccc(Cl)c4)CC3)CCC(=O)N2)ccc1F (stereo not drawn)	-3.5	-7.0
COc1ccc(-n2c(SCC(N)=O)nc3c(c2=O)SCC3)cc1OC	-3.4	-6.5
C=CCn1c(O)c(N=Nc2ccccc2)c2ccccc21	-1.0	-7.2
N#Cc1ccccc1NC(=O)N1CCN(CCCOC(c2ccc(Cl)cc2)c2ccc(Cl)cc2)CC1	0.4	3.8
CNc1cncc(-c2cccnc2)n1	2.5	1.3
CN(Cc1ccccc1)C1(CNC(=O)CC2CCS(=O)(=O)C2)Cc2ccccc2C1 (stereo not drawn)	9.7	10.4
COc1ccc(C2=NOC(CN(Cc3cccc(Cl)c3)C(=O)c3cccc(F)c3)C2)cc1 (stereo not drawn)	1.3	10.2
Cc1c(C(=O)N2CCC(C)CC2)c(C(F)(F)F)nn1C1CCCN(C)C1 (stereo not drawn)	11.2	0.3
Cc1cc(=O)oc2cc(CN3CCN4C(=O)CN(C)C(=O)C4C3)ccc12 (stereo not drawn)	-5.5	-6.2
CNC(=S)N(Cc1ccc(OC)cc1)C1CC(=O)N(c2ccccc2)C1=O (stereo not drawn)	-3.0	-4.8
CCOC(=O)N1CCN(C2CC(=O)N(c3ccc(OC)cc3)C2=O)CC1 (stereo not drawn)	-12.0	-13.4
COc1cccc(CN(C)C(=O)NC2CCCCC2C)c1OC (stereo not drawn)	2.5	2.0

Screening data deposited in PubChem BioAssay by Fisher Drug Discovery Resource Center.

An excerpt; rates above refer to the full screens.
